LANA-H2B inh: blocks KSHV LANA binding to histone H2A/H2B; Q9QR71; cell-free LANA-H2A/H2B peptide, fluorescence polarization; inhibition, % (no concentration beside the values); actives 0.6% (n = 320,000); AID 2629; in the data active means inhibition mostly above about 10%, no sharp cut-off; inactive means mostly below about 6.7%;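 further: stock transfer was 7.5 nL into about 10 µL; 0% = median of vehicle wells and 100% = median of positive control wells; one replicate is shown; the record names a cut of 25% in any replicate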
ALR H2O2 inh: inhibitors of human sulfhydryl oxidase ALR. AID 485317. actives 3.8% (n = 290,000). purified ALR, DTT oxidation, H2O2 HRP-luminol luminescence. inhibition, % (no concentration beside the values);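 active means mean and each replicate at 75% or more; inconclusive means only one of the two met; inactive means neither met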;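 further: stock transfer was 7.5 nL into about 7.5 µL; 0% = neutral wells and 100% = wells with inactivated enzyme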
Target sequence (P55789 whole entry, looked up): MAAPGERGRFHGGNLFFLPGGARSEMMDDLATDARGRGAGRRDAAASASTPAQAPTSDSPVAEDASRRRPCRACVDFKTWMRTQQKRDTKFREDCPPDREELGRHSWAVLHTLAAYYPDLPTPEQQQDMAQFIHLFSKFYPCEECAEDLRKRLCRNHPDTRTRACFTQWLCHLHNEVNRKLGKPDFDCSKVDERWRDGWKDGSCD
B2AR ag: human beta-2 adrenergic receptor agonism by FAP. P07550. actives 0.43% (n = 340,000). Am2.2-beta2AR cells, FAP receptor internalization, flow cytometry; reference of the scale not given here. response, % (concentration not given with the values);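 active means response above a set limit, near 3 SD of response in nonfluorescent compounds, cut at about 42% in these data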;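 further: stock transfer was 100 nL into about 11 µL; a reference agonist was the positive control; negative values mostly stem from fluorescent compounds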
Target sequence (P07550 whole entry, looked up): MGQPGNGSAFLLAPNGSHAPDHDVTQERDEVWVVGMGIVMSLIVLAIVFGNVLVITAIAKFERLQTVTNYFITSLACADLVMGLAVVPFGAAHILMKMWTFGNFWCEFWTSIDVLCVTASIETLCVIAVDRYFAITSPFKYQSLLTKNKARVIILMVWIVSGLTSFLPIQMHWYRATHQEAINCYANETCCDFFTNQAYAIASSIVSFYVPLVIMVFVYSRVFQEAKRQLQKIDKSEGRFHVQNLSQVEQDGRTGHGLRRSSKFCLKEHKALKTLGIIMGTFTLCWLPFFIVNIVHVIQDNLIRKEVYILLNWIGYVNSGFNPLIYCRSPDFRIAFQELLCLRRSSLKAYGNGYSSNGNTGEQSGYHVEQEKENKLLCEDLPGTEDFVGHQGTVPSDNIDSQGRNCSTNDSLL
Calb FLC: C. albicans growth modulation with fluconazole | C. albicans CaCi-2 (fluconazole-resistant clinical isolate) + fluconazole, Alamar Blue growth, 48 h | growth inhibition, % (test concentration not listed) | actives 0.57% (n = 300,000);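 active means most replicates above 75%; inconclusive means exactly half above 75%; inactive means most below 75%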;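 further: all wells also contain fluconazole at 8 µg/ml as a sub-toxic cotreatment; 0% = median of DMSO wells and 100% = median of geldanamycin control wells; wells of about 8 µL received 7.5 nL stock; the first replicate is given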
Vif TR-FRET: HIV-1 Vif–A3G interaction blockers – biochemical, TR-FRET, GST-Vif 1-94, biotin-A3G peptide, dose response retest, primary screen (AID 1117319). inhibition, %, or IC50 in µM where a hit was titrated. TR-FRET GST-Vif / biotin-A3G peptide binding; higher % means a stronger effect; test concentration not given here; strong numbers were not always called active. actives 0.57% (n = 260,000);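 active means above the screen mean plus three standard deviations and confirmed in dose response; inconclusive means results disagree or hit not tested in dose response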;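 further: Vif residues 1-94 fused to GST binding biotinylated APOBEC3G peptide 110-148; 0% = full assay without inhibitor and 100% = GST in place of GST-Vif; retest series ran down from 100 µM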
RanGTP-Imp inh: inhibitors of RanGTP-importin-beta interaction, primary screen, biochemical, FRET, CFP-Ran, YFP-importin-beta, homogeneous | inhibition, % (test concentration not listed) | cell-free CFP-Ran/YFP-importin-beta FRET ratio | actives 1.1% (n = 300,000);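 active means most replicates above 15%; inconclusive means exactly half above 15%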;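 further: 0% = DMSO wells and 100% = Ran loaded with GDP instead of GTP; wells of about 40 µL received 100 nL stock; the first replicate is given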
HNF4A DNA FP: change in binding of human HNF4 alpha to DNA; P41235; HNF4a-FITC DNA binding, fluorescence polarization, 1 h; activity change, % at 10 µM; actives 0.3% (n = 360,000); in the data active means activity change above about 30%, passing the limit was not always enough;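 further: controls were the assay level and a saturating level of protein; the project sought stronger binding though the title names inhibitors; some compounds called inactive have numbers as strong as hits; positive values seem to mean higher polarization but the record does not say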
Active calls of the source: *; u = inconclusive; x = no result given; & = joins results of further samples.

Results follow in this order: LANA-H2B inh, ALR H2O2 inh, B2AR ag, Calb FLC, Vif TR-FRET, RanGTP-Imp inh, HNF4A DNA FP
COc1ccc(-c2nc(CS(=O)(=O)CC(=O)NCCCc3ccccc3)c(C)o2)cc1
→ -0.7, u, 1.9, 2.5, 1.7%, 1.9, -0.6
COc1ccc(C(=O)Nc2cccc(-c3nc4ncccc4o3)c2C)cc1
→ -6.0, -9.9, -2.3, 0.9, u, 5.8, 0.1
CN1/C(=C\C(=O)C[n+]2cccc(Br)c2)C(C)(C)c2ccccc21
→ -2.5, -17.7, 14.5, -13.3, 10.0%, -2.7, -0.2
CC(C)[C@H]1COCCS(=O)(=O)N1Cc1ccccc1-c1ccc(C(C)(C)C)cc1
→ x, x, 10.7, x, 2.4%, x, -1.6
CCN1CCN(S(=O)(=O)c2ccc(Cl)c(C(=O)NC3CCC(C)CC3)c2)CC1 (centres undefined)
→ 2.2, x, -8.8, x, -3.5%, x, 5.8
COc1ccc(OC)c(/C=C/C(=O)Nc2ccc(OC)nc2)c1
→ -1.8, -1.1, 4.6, 112.8*, -10.4%, 2.7, -0.1
O=C1CN(C(=O)/C=C/c2ccccc2)CCN1
→ -0.7, -6.3, -0.5, -3.5, 7.9%, -0.7, 3.3
CC(C)OCC1CC(CC(=O)Nc2ccc([N+](=O)[O-])cc2)C(=O)O1 (centres undefined)
→ -0.1, 8.4, -3.7, -2.8, x, -3.6, -10.5
CCC(CC)NCCOC(=O)c1ccc([N+](=O)[O-])cc1
→ 0.7, x, -3.1, 6.5, -9.7%, 0.5, 0.5
CCC(CC)C(=O)Nc1cccc(C(=O)Nc2nnc(C)s2)c1
→ -2.9, -15.8, 5.5, 17.2, 2.6%, 4.3, -1.1
COc1ccc(N=Nc2ccc(O)c(P(=O)(c3ccccc3)c3ccccc3)c2)cc1
→ 1.5, -4.3, -13.4, 15.5, x, -0.2, 1.2
CCN1C(=O)CC(Sc2ccccc2N)C1=O (centres undefined)
→ -0.6, -6.9, 24.8, 8.6, 6.7%, -0.9, 2.5
Cc1cc(C)n(-c2ccc(C(=O)OCC(=O)Nc3ccc(Cl)c(S(=O)(=O)N(C)C)c3)cc2)n1
→ 1.4, -5.2, -4.8, -1.9, 6.0%, u, 2.4
Cc1ccc(-c2cc(C(F)F)nc(S(C)(=O)=O)n2)cc1
→ -11.4, 19.7, 2.4, 52.8, 7.3%, 3.2, -0.7
O=C(CCCCC(=O)NN=Cc1ccccc1O)NN=Cc1ccccc1O
→ x, x, 0.6, x, -7.8%, x, 1.7
COc1cccc(-c2cc(C(=O)NCC3CCCO3)c3ccccc3n2)c1 (centres undefined)
→ -1.1, -1.2, -7.9, -10.6, 4.7%, 7.1, 2.0
O=C(CSc1nnc(-c2ccco2)o1)c1ccccc1Cl
→ -4.4, x, -3.6, 7.3, 8.8%, 0.3, 2.4
COc1cccc(N2CC(NS(=O)(=O)c3ccc(Cl)cc3)CC2=O)c1 (centres undefined)
→ 3.9, -2.8, 0.1, 0.0, -0.4%, 4.9, 22.9
CCOc1ccc(OCC)c(NC(=O)C2CCN(S(=O)(=O)c3cccc4nonc34)CC2)c1
→ -1.7, 0.9, 0.6, -19.1, -1.1%&-4.5%, 3.5, 2.6
Fc1ccc(-c2ccnn2-c2ccccc2)cc1
→ 0.1, 0.4, 0.7, 2.0, -10.9%, u, -4.2
CCc1nc(Nc2ccncc2)c2oc3ccccc3c2n1
→ -2.0, 10.8, 1.9, 84.5*, 2.0%, 3.8, -1.8
CC(=O)C1=C(C)Nc2ncnn2C1c1ccc(C)cc1 (centres undefined)
→ -6.5, 27.3, 3.1, x, -0.9%, -3.2, 1.9
Cc1ccc2c(c1)c(C1=NC(=S)NC1=O)c(O)n2C
→ 7.6, -7.0, 14.3, 4.0, 9.4%, -1.6, 4.3
Cc1cc(C)cc(OCC(=O)OCC(=O)NCc2cccs2)c1
→ -3.6, 3.0, 3.1, -10.0, 22.4%, 11.5, 1.2
CCOC(=O)Cc1csc(NC(=O)CSc2nnc(-c3ccc(F)cc3)o2)n1
→ 1.5, -6.4, -10.2, -42.2, u, 1.4, 1.2
COc1ccccc1N1CC(C)(C)C(=O)N(C(=O)c2ccc(C)cc2)C1=S
→ 2.4, -4.3, -1.1, 1.2, x, -0.1, -1.3
Cc1oc(-c2ccccc2F)nc1CS(=O)(=O)CC(=O)NCCCN1CCc2ccccc2C1
→ 3.2, 12.8, -1.7, -2.9, -4.1%, 0.3, -1.1
CCC(C)(NC(=O)c1ccc(=O)[nH]c1)C(=O)NC1CCCC1 (centres undefined)
→ -5.1, -16.1, 2.4, -0.4, -3.5%, 2.4, -2.3
CCOc1ccc(CN(C)C(=O)c2cc3ccccc3o2)cc1OC
→ -4.9, x, 12.1, -5.8, x, 1.0, 1.9
O=C(CNS(=O)(=O)c1ccc(Br)cc1)N1CCN(c2ccc(F)cc2)CC1
→ 0.3, 6.5, 0.6, 9.5, -8.3%, 2.3, 4.7
CC(=O)Nc1ccc(Nc2nc3ccccc3n3cnnc23)cc1
→ 0.4, -6.5, -12.9, 6.7, 5.9%, 0.2, -2.6
C=CCNc1cnn(-c2ccc(C)cc2)c(=O)c1Cl
→ 3.1, -2.5, -6.6, -0.2, 1.0%, 0.0, -1.8
O=C(c1ccco1)N1CCN(C(=O)c2ccc(Cn3cc(Br)cn3)o2)CC1
→ -1.4, 2.0, -23.8, -0.4, 5.7%, -1.9, -0.3
Cc1cccnc1CCNC(=O)CCc1nnc(-c2ccccc2)o1
→ 3.5, -2.4, -1.8, -9.6, 15.7%, -0.1, 3.1
CC(C)(Oc1ccc(Cl)cc1)C(=O)OCc1nc2ccsc2c(=O)[nH]1
→ -2.7, x, 7.1, 7.8, -1.8%, -0.3, 1.6
CCN1C(=O)/C(=C/c2nc3ccccc3c(=O)[nH]2)c2ccccc21
→ 0.6, x, 15.9, x, 4.4%, x, -0.2
C=CCn1c(SCC(=O)Nc2cc(C)on2)nc2sc(CC)cc2c1=O
→ 9.5, x, 1.1, u, u, -1.2, 1.9
Cc1cc(F)c(F)c(C(=O)NC2CC2)c1Cl
→ 0.6, 0.6, 4.7, -6.2, 4.2%, 9.7, -2.0
COc1ccc(C(=O)NCc2nnc(SCC(=O)NC3CCCC3)o2)cc1
→ -0.7, -24.4, -2.2, 55.1, -7.2%, 0.0, 1.7
CC(=O)Nc1ccc(S(=O)(=O)N(C)CC(=O)NNC(=O)c2cccs2)cc1
→ -4.0, -1.9, -6.1, x, x, x, 0.5
CCS(=O)(=O)Nc1ccc(-c2nc3cccnc3s2)cc1
→ 4.1, -3.3, 2.5, -4.0, -3.1%, 2.0, 3.6
CCC(CO)Oc1cc(NCc2ccc(F)cc2)c2ncn(C(C)C)c2c1 (centres undefined)
→ -2.3, 11.7, -3.6, x, x, x, 8.7
CSc1ncnc2sc(C)c(C)c12
→ -1.9, x, 2.6, -7.1, u, -3.4, 1.5
O=C(CSc1nc2ncccc2[nH]1)Nc1c(F)cc(F)cc1Br
→ 3.4, -3.0, -7.8, 14.4, x, 3.7, 0.4
CC(C)C(=O)Nc1cccc(-c2nc3ccccc3o2)c1
→ -5.2, -1.5, -6.8, 5.0, -4.0%, -1.2, 2.0
O=C1NC(c2ccccc2)=C(c2ccc3ccccc3n2)C(c2ccc(F)cc2)N1 (centres undefined)
→ 7.4, -6.5, 0.0, 24.9, -9.1%, x, -1.2
COc1ccc(C(=O)Nc2cccc3c2CCCC3)cc1OC
→ 2.4, -2.2, -5.7, -3.9, x, 7.7, -2.0
Cc1cccc(C(=O)N2CCN(CCNC(=O)C(=O)Nc3ccc(F)cc3)CC2)c1
→ 16.2, x, 2.5, -2.7, x, u, -1.3
CC(=O)Nc1ccc(S(=O)(=O)NC2CCSc3ccccc32)cc1 (centres undefined)
→ -2.0, -0.2, 7.3, -2.4, -12.5%, 1.8, 2.9
O=C(O)Cn1cc(/C=C2/NC(=O)N(c3ccc(Cl)cc3)C2=O)c2ccccc21
→ -0.1, 92.2*, 2.9, -4.5, -2.8%, 0.7, -3.8
CC(C)Cn1c(-c2ccco2)n[nH]c1=S
→ 1.9, 3.1, 4.8, 24.3, 1.5%, 2.2, -0.5
N#CC(C(=O)c1ccc(S(=O)(=O)N2CCCCCC2)cc1)c1nc2ccccc2[nH]1 (centres undefined)
→ 1.6, 14.1, -6.9, 47.3, u, 6.7, 2.6
CCCCn1cnc2c(SCCc3ccccc3)nc(N)nc21
→ x, x, 2.1, x, -0.4%, x, -3.7
COc1ccc(N2CS(=O)(=O)/C(=C/N(C)C)C2=O)cc1
→ -2.3, -44.7, 3.5, -18.0, 9.1%, 5.2, -1.3
CCOc1ccc(OCCC(=O)Nc2ccc(F)cc2C)cc1
→ -1.8, 2.8, -4.3, -8.3, 0.7%, 2.5, -1.7
O=C1c2cccnc2C(Nc2ccc(F)c(Cl)c2)N1Cc1cccs1 (centres undefined)
→ 3.6, x, -6.0, -30.9, x, u, 4.2
COC(=O)c1oc2ccccc2c1NC(=O)/C=C/C(=O)O
→ 1.0, 33.5, 4.9, 33.9, 3.6%, u, 3.1
O=c1[nH]nnc2cc(Cl)ccc12
→ x, x, -2.1, x, 3.4%, x, 1.0
CCCCCN(C(=O)CCC(=O)OCC(=O)c1ccc(C(C)CC)cc1)c1c(N)n(CCCC)c(=O)[nH]c1=O (centres undefined)
→ -10.4, -2.5, -0.2, -1.9, -1.5%, 6.4, 4.1
N=c1n(CCN2CCCCC2)c2ccccc2n1CC(O)c1ccc(Cl)c(Cl)c1 (centres undefined)
→ -1.4, -16.3, 32.2, -14.0, 13.1%, 5.2, -2.0

More entries
Results follow in this order: LANA-H2B inh, ALR H2O2 inh, B2AR ag, Calb FLC, Vif TR-FRET, RanGTP-Imp inh, HNF4A DNA FP
Cc1cccc(NC(=S)NC(=O)/C=C/c2ccco2)n1
→ -3.0, x, -5.3, -1.2, u, -19.8, 2.5
COc1ccc(OC)c(Nc2cc(C(=O)NCCCN3CCOCC3)c3ccccc3n2)c1
→ 3.6, 62.0, 2.9, -8.1, 4.7%, -3.1, 0.8
CCc1sc(N(C(=O)Cc2ccccc2)c2ccccc2F)nc1-c1ccc(C)cc1
→ 5.8, -22.2, 10.7, -12.3, 10.4%, -0.5, 2.5
CCS(=O)(=O)n1nc(-c2ccccc2)nc1N
→ -3.6, -4.8, -4.3, 7.7, 13.8%, 2.4, -2.1
Cc1ccccc1N=C1NC(=O)/C(=C/c2cccn2-c2cccc(C(=O)O)c2)S1
→ x, x, -9.3, 0.3, x, 5.1, x
Cc1ccc(S(=O)(=O)N(C)C)cc1NC(=O)CN1C(=O)NC2(CCCCCCC2)C1=O
→ -3.9, -1.7, -1.1, -1.6, x, 3.7, 0.3
O=C(c1ccco1)N1CCN(c2ccc([N+](=O)[O-])cc2F)CC1
→ -1.0, -4.5, 5.8, 1.0, x, -4.1, 0.7

Source: PubChem BioAssay
